NPR1 antag – Natriuretic polypeptide receptor (hNpr1) antagonism - Primary qHTS; Atrial natriuretic peptide receptor 1 (Homo sapiens), P16066; HEK293 hNpr1 GloSensor cGMP, ANP-stimulated luminescence; Potency, µM (top dose mostly 46.3 µM), without a hit: top-dose activity change, negative = inhibition, actives largely listed as inhibitors; 1.6% of 76,000 active; AID 1347048, 2019; active = well fitted inhibition curve with a large enough effect; inconclusive = small, poorly fitted or top-dose-only effect; inactive = no such curve, though single readings can be large or run the other way;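 further: nearly all actives have a fitted effect of over 60% in size; nearly all hits also lower the signal before the agonist is added; a reference antagonist and vehicle were the controls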
Target sequence (P16066 whole entry, looked up): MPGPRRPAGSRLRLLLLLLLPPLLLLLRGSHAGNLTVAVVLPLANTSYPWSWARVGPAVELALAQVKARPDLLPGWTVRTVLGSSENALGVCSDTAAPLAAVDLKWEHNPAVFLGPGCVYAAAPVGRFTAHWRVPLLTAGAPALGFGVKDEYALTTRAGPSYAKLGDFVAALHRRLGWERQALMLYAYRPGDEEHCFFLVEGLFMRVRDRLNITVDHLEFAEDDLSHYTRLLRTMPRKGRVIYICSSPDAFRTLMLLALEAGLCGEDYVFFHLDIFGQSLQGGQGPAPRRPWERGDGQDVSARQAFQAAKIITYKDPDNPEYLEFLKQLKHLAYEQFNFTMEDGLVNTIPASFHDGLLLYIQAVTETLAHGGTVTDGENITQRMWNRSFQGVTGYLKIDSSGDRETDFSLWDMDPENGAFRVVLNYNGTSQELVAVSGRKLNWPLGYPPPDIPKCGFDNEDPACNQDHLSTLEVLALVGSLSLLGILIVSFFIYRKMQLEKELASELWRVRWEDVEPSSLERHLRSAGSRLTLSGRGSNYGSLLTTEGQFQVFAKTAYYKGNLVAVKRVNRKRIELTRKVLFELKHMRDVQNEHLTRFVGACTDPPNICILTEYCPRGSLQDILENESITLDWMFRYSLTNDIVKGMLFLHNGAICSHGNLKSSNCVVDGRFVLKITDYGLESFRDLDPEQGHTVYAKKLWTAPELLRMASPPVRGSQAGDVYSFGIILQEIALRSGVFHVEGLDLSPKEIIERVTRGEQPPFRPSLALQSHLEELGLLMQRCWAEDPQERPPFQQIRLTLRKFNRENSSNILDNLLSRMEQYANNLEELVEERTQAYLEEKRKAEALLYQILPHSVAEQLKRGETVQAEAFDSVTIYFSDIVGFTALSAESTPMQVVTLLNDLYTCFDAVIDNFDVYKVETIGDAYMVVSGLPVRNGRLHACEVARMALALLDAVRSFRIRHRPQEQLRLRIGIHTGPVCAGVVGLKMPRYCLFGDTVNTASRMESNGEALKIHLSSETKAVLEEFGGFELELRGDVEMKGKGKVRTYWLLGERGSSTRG
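Compound pre-incubated 30 min at room temperature on GloSensor-loaded HEK293 cells stably carrying hNpr1 and the pGS-40F cGMP biosensor. Stimulation uses hNppA at 0.1 nM final; luminescence is taken at baseline and 20 min post-agonist.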
* hit, by the source's call; ? = inconclusive; [ ] = dose if it differs, or a comment. On the % scale 0 is the no-effect control and ±100 the full control effect; potency means the concentration at half of the fitted maximal effect.

NPR1 antag | SMILES
-18% | O=C(CCC1CCN(S(=O)(=O)c2ccccc2)CC1)NCCc1ccccc1
-11%[70.6 µM] | c1ccc(N2CC3(CN(CC4CC4)CC3CNc3cccnc3)C2)cc1 (configuration not stated)
? | O=C(NCc1ccc(F)cc1)C1CCN(c2cc(C(F)(F)F)ncn2)CC1
-1% | Cc1nnc2n1CCC(N(C)C(=O)NC1CCCCC1)CC2 (configuration not stated)
-4% | CCc1nn(-c2ccccc2)c(Oc2ccc(C)cc2)c1CCC(=O)N1CCSCC1
-24% | CCC1=C(C(=O)OC)C(c2cccc(F)c2)N2C(CC(=O)NCc3ccco3)=CSC2=N1 (configuration not stated)
3% | Cc1ccc(NC(=O)C2(C)CCCCC(=O)N2)cc1 (configuration not stated)
-2%[70.6 µM] | CC1(C(=O)NCCc2ccccn2)CCc2cnc(NCc3ccccc3)nc21 (configuration not stated)
8% | CC(C)NC(=O)N(C1CCOCC1)C1CNC1
-5% | CS(=O)(=O)N(Cc1cccnc1)C1CN(C(=O)NCc2ccccc2)C1
2% | COCC(=O)N1CC(C(=O)NCCc2ccc(OC)cc2)CC(c2ccc(F)c(C)c2)C1 (configuration not stated)
2% | CS(=O)(=O)N1C[C@H]2CCN(Cc3cc(Cl)ccc3F)C[C@H]21
3% | OC1(CN2CCN(c3ccc(F)c(Cl)c3)CC2)CCCNC1 (configuration not stated)
1% | Cc1nc(CCC(=O)N2CCC(Cc3ccc(C(=O)O)cc3)C2)n[nH]1 (configuration not stated)
-3% | Cc1cnc(CC2CCN(C(=O)C3CC3)C2)n1CC1CC1 (configuration not stated)
-1% | COc1cc(NC(=O)c2ccc(N3CC4CC(C3)[C@H]3CCCC(=O)N3C4)nc2)cc(OC)c1 (some centres not stated)
6% | Cc1nc(-c2c3n(c(=O)n(CC(=O)Nc4cccc(F)c4)c2=O)CCCCC3)no1
-4% | COCc1noc([C@@H]2CN(Cc3ccc(F)c(OC)c3)C[C@H]2C(N)=O)n1
-1%[70.6 µM] | Cn1cc(-c2cnc3[nH]cc(CC(=O)NCc4cccc(F)c4)c3c2)cn1
2%[70.6 µM] | CCCCN1C(=O)[C@@H]2C[C@@H](O)CN2C2(CN(Cc3cnc[nH]3)C2)C1=O

NPR1 antag | SMILES
-22% | Cc1nn(-c2ccccc2)c(Oc2ccccc2F)c1CCC(=O)NC1CC1
3% | CCn1c(C)cc(C)c(C(=O)NCC2CCOc3ccccc3C2)c1=O (configuration not stated)
0% | NCc1cn[nH]c1-c1ccccc1
-19%[70.6 µM] | CNC(=O)CCn1ncc2cc(OC3CCc4cccc(-c5ccc(F)cc5)c43)ccc21 (configuration not stated)
13µM* | O=C(C1CCCC1)N1CCCC(n2cc(-c3nc(-c4ccccc4)no3)nn2)C1 (configuration not stated)
-1% | COCCNC(=O)C1COC2(CCN(C(=O)c3ccc(F)cc3)CC2)N1C(=O)c1cccc(OC)c1 (configuration not stated)
-7%[70.6 µM] | c1ccc(-c2ccc3ncc(Nc4cccnc4)n3n2)cc1
2% | Cc1cc(C(=O)N2CCC(n3c(C)cnc3C3CCC3)CC2)nn1C
6%[70.6 µM] | COCCOc1cc(-c2noc([C@@H]3CCCN3Cc3ccc(C(=O)O)cc3)n2)ccn1
-7% | O=C(NCc1nnc2c(-c3nc(C4CC4)no3)cccn12)c1ccc2ccccc2n1
? | CC(C)c1noc(-c2cn(C3CCCN(C(=O)c4ccc(Cl)cc4)C3)nn2)n1 (configuration not stated)
-30% | COc1cccc2c1OCCCN(c1cc(C3CC(O)C3)nc(N)n1)C2 (configuration not stated)
-2% | CC(=O)Nc1ccc(CN2CCC3(C2)NC(=O)c2ccccc2CO3)cc1 (configuration not stated)
0% | CCC(=O)N1CCC2(CC1)NCCc1c2[nH]c2ccc(OC)cc12
-13%[70.6 µM] | COc1ccccc1CNC[C@H]1O[C@H](Cc2cc(-c3ccccc3)on2)CC[C@@H]1O
2% | C=CCn1c(CN2CCC3(CC(=O)NC3=O)C2)nc2ccccc21 (configuration not stated)
-12% | O=C(Cn1ccn2nc(-c3ccccc3)c(CO)c2c1=O)Nc1cccc(Cl)c1
1% | Cc1nc2cccnc2n1CC1CCCN(S(=O)(=O)c2cc(F)cc(F)c2)C1 (configuration not stated)
6% | CCn1c(C2CCCNC2)nn(CCn2cnc3c2c(=O)n(C)c(=O)n3C)c1=O (configuration not stated)
3% | CCn1nccc1C(=O)N1CCCCCNC(=O)[C@@H]2CCC[C@@H]21

A section from further up:
NPR1 antag | SMILES
-22% | Cc1nn(-c2ccccc2)c(Oc2ccccc2F)c1CCC(=O)NC1CC1
3% | CCn1c(C)cc(C)c(C(=O)NCC2CCOc3ccccc3C2)c1=O (configuration not stated)

(more compounds)
NPR1 antag | SMILES
3% | O=C1CC(c2ccccc2)N(C(=O)CNC(=O)C2CCC2)CCCCCN1 (configuration not stated)
-21% | COc1ccc(-c2noc(-c3cccn3CC(=O)Nc3cc(Cl)ccc3OC)n2)cc1F
0%[70.6 µM] | COc1cccc(N2CC(C(=O)NC(C)C)NC2=O)c1 (configuration not stated)
2% | CCCN(CC1CCOC1)C(=O)c1ccccc1C(F)(F)F (configuration not stated)
-5% | CCN1C(=O)C2CC3(CCN(C(=O)c4ccncc4)CC3)CN2C1=O (configuration not stated)
0% | N#Cc1ccc(CN2CCC3(CN[S+](=O)([O-])c4ccccc4N3)C2)cc1 (configuration not stated)
-3% | Cc1cccc(CNC(=O)c2noc(-c3ccc4c(c3)OCO4)n2)c1
? | COC(=O)c1cccc(NC(=O)CCNc2c(C)nc3cnccn23)c1
5% | CCn1nc(C(C)C)cc1C(=O)N1C[C@@H]2CCN(C)C[C@]2(C(=O)O)C1
-1% | CCOc1ccc(C2Cn3nnc(-c4nc(-c5cccc(OCC)c5)no4)c3CO2)cc1 (configuration not stated)
-2% | OC[C@@H]1CN(C2CCCC2)C[C@H]1c1nc(-c2cccnc2)no1
? | Cc1ccc(NC(=O)c2cc3n(n2)CC(c2ccc4c(c2)OCO4)OC3)cc1F (configuration not stated)
5% | O=C(O)c1cccc(C2CCCN(C(=O)c3ccccc3-c3ncn[nH]3)C2)c1 (configuration not stated)
2% | CC(=O)N[C@@H]1CN(C(=O)CCCS(N)(=O)=O)C[C@H]1c1ccc(C)cc1
1% | Cc1cnc(C2CCOCC2)n1C1CCCN(C(=O)COc2ccc(F)cc2)C1 (configuration not stated)
2% | COCCN1CC(Cc2cccc(-c3nnc(C)s3)c2)CC1=O (configuration not stated)
2% | O=C(NCCc1c[nH]c2ccccc12)c1cnc2c(c1)N(C(=O)CCc1ccccc1)CCC2
2% | CN1[C@@H](CCC(=O)NCc2ccco2)CNC(=O)[C@@H]2[C@H]1CCN2Cc1cccc(OC(F)(F)F)c1
-23% | CCN(CC)C(=O)CCc1c(C)nn(-c2ccccc2)c1Oc1ccc(F)cc1F
1% | Cc1ccc(F)cc1CNC(=O)CCc1nnc(CCc2c[nH]c3ccccc23)o1

Copied from the list:
`Cc1ccc(F)cc1CNC(=O)CCc1nnc(CCc2c[nH]c3ccccc23)o1` – NPR1 antag: 1%
`CCn1nc(C(C)C)cc1C(=O)N1C[C@@H]2CCN(C)C[C@]2(C(=O)O)C1` – NPR1 antag: 5%
`CN1[C@@H](CCC(=O)NCc2ccco2)CNC(=O)[C@@H]2[C@H]1CCN2Cc1cccc(OC(F)(F)F)c1` – NPR1 antag: 2%

Sorted by SMILES length (lowest first): three of the compounds above
NPR1 antag | SMILES
-21% | COc1ccc(-c2noc(-c3cccn3CC(=O)Nc3cc(Cl)ccc3OC)n2)cc1F
2% | CC(=O)N[C@@H]1CN(C(=O)CCCS(N)(=O)=O)C[C@H]1c1ccc(C)cc1
2% | O=C(NCCc1c[nH]c2ccccc12)c1cnc2c(c1)N(C(=O)CCc1ccccc1)CCC2

Next entries follow.
NPR1 antag | SMILES
2%[70.6 µM] | CC(C)(C)C(=O)N1CC[C@H]2CC(=O)N(Cc3cccnc3)CC[C@H]2C1
-6% | N#Cc1cccc(C(=O)NC2CCN(c3cc(-c4ccc(Cl)cc4)[nH]n3)CC2)c1
-4% | Cc1ncccc1C(=O)NC(CC(C)C)c1nnc2n1CCNCC2 (configuration not stated)
-18% | CCn1nccc1C(=O)N1CCC2(CC1)CC(N(C(=O)c1ccccc1)C1CC1)CCO2 (configuration not stated)
-8%[70.6 µM] | F[C@@H]1CN(C2CCC2)C[C@@H]1OCc1nc2ccccc2o1
6% | CCOCCNc1nccc(C2(c3ccccc3Cl)CCNCC2)n1
4% | COc1ccc(C(=O)N2CCC(N3CC4CC(C3)[C@H]3CCCC(=O)N3C4)CC2)cn1 (some centres not stated)
1% | Cc1ccc(NC2CCCN(C(=O)c3ccc(F)c(F)c3)C2)cc1C (configuration not stated)
3%[70.6 µM] | COCCn1c(=O)c2c(n1Cc1ccccc1)CN(C(=O)Cc1cccc(F)c1)CC2
5% | O=C(Cc1ccc(Cl)cc1)N1CCC2(CC1)NC(=O)N(c1cccc(F)c1)N2
2% | CNC(=O)CN1CCCC(N2CCN(c3cccc(C(F)(F)F)c3)CC2)C1 (configuration not stated)
-2% | CCCNC(=O)C1COC2(CCN(C(=O)c3ccc(OC)cc3)CC2)N1C(=O)c1ccc(OC)cc1 (configuration not stated)
2% | COCc1nc(N2CC3C[C@@H]4CC2C[C@H](C3)C4)c2cnn(C)c2n1
2% | O=C([C@H]1C[C@H](Oc2ccccc2)CN1C(=O)c1cc(F)ccc1F)N1CCOCC1
4% | CCN(CC)Cc1cnc2c(C(=O)NCCc3cnccn3)cnn2c1
3% | CCC1c2nccn2CCCN1C(=O)Cn1c(=O)oc2ccccc21 (configuration not stated)
1%[70.6 µM] | CC1=C[C@@H](CNC(=O)COCC(=O)O)[C@H](C(C)C)C[C@H]1Cc1nc2ccccc2[nH]1
-2%[70.6 µM] | CCN(CC)Cc1nc(C2(O)CCN(C(=O)Nc3cccc(F)c3)CC2)cs1
3% | COC1CCCOC12CCN(C(=O)c1ccc3n[nH]nc3c1)CC2 (configuration not stated)
3% | COc1ccccc1CN(C(=O)c1cccc(-c2noc(C)n2)c1)C1CC1

NPR1 antag | SMILES
-26% | C=CCOC(=O)C1=C(C)N=C2SC=C(CC(=O)NC3CC3)N2C1c1cccc(C)c1 (configuration not stated)
1% | COC(=O)c1ccc2nc(C[C@@H]3C[C@@H](C(C)C)[C@H](CNC(=O)CC4(CC(=O)O)CCCC4)C=C3C)[nH]c2c1
-17% | Cc1ccc(C)c(NC(=O)C2CCN(C(=O)c3ncn4c3COC(c3ccc(F)cc3)C4)CC2)c1 (configuration not stated)
-12% | CC(C)n1cc(CN2CC[C@@H](c3ccc4ccccc4c3)[C@H](O)C2)cn1
-1% | O=C1CC(c2noc(-c3ccccc3F)n2)CN1c1ccc(Cl)cc1 (configuration not stated)
0% | CN(C)C[C@@H]1CN(c2ncccn2)C[C@H]1NC(=O)Cc1cccc(F)c1
5% | COCCCN1C(=O)CC[C@H]2CN(C(=O)c3cn(C)c(=O)[nH]c3=O)CC[C@H]21
0% | COc1ccccc1N1CCN([C@@H]2[C@H](O)[C@H](CO)O[C@@H]2CNC(=O)NC(C)C)CC1
-2% | CC(Cn1cncn1)Nc1ccc(-c2nc(Cc3ccc(F)cc3)no2)cn1 (configuration not stated)
-2% | Cc1cnc(C(=O)N2CCOCC(CO)C2)cn1 (configuration not stated)
5% | Cc1nc(CNC(=O)c2ccc3c(c2)CN(CCCn2ccnc2)C3=O)no1
-1% | CC(C)(O)CCc1ccc(C(=O)N2CCN(c3ccncc3)CC2)cc1
7% | CNC(=O)N1CCC(C2CCN(Cc3ccncc3)C2)CC1 (configuration not stated)
-2% | COCCCNC(=O)CCC[C@@H]1[C@H]2CCCN3CCC[C@@H](CN1C(=O)c1cccnc1)[C@@H]23
28% | COC1CCOC2(CCN(C(=O)Cn3c(=O)oc4ccccc43)CC2)C1 (configuration not stated)
1% | O=C(NCc1nnc2cc(-c3nc(C4CC4)no3)ccn12)c1ccccc1F
2% | Cc1ccccc1-n1nc(CC(N)=O)nc1-c1ccc(Cn2cnnn2)cc1
-2% | O=C(c1ccoc1)N1CCC(O)(c2ccccc2)[C@H](N2CCCC2)C1 (some centres not stated)
14µM* | N#Cc1ccc(CN2CCc3nc(C(=O)Nc4cccc(C(F)(F)F)c4)oc3CC2)cc1
2%[70.6 µM] | COc1ccc(CNC(=O)C[C@@H]2O[C@H](CNCc3cccc(Cl)c3)[C@@H](O)[C@H]2O)cc1
-16% | Cc1ncoc1C(=O)N1CC(Oc2ccc(-c3nc(-c4ccccc4)no3)cc2)C1
-1% | COc1ccc(Cn2c(C3CCN(C(=O)c4cc(C)cc(C)c4)CC3)n[nH]c2=O)cc1

Structural class: those above with a furan ring, fused or not
NPR1 antag | SMILES
-24% | CCC1=C(C(=O)OC)C(c2cccc(F)c2)N2C(CC(=O)NCc3ccco3)=CSC2=N1 (configuration not stated)
2% | CN1[C@@H](CCC(=O)NCc2ccco2)CNC(=O)[C@@H]2[C@H]1CCN2Cc1cccc(OC(F)(F)F)c1
-2% | O=C(c1ccoc1)N1CCC(O)(c2ccccc2)[C@H](N2CCCC2)C1 (some centres not stated)

Bioassay records as filed in PubChem BioAssay.

The list is partial, so the mix of outcomes need not match the whole.
